Source: PubChem (The Scripps Research Institute Molecular Screening Center)
CHO parental Ca: counter-screen for OX1R antagonists: effect in parental CHO cells | parental CHO-K1, ATP-induced calcium, Fluo-8 fluorescence | inhibition, % at 5.6 µM | hit rate 0.63% among 330,000;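 active means inhibition above that plate's mean sample inhibition plus 3 SD, cut at about 26% in these data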;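 further: 0% = ATP-challenged DMSO wells and 100% = DMSO wells without ATP; some compounds past the cut are filed as inactive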
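Test system: parental CHO cells; detection: calcium-sensitive Fluo-8 fluorescence; evaluation: percent inhibition of calcium signal; also added: ATP as calcium-mobilizing challenge; repeats: one well per compound; control set: ATP-challenged DMSO wells low, unchallenged DMSO wells high; compound: single nominal dose of 5.6 µM per compound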
OXTR potentiate: human OXTR potentiation; CHO-OTR cells, Fluo-8 calcium fluorescence, potentiator mode; 0% = oxytocin EC15, 100% = EC100; activation, % at 3 µM; hit rate 0.061% among 320,000; AID 2445;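 active means activation above that plate's cutoff, the mean activation of tested compounds plus 3 SD, cut at about 6.6% in these data, passing the limit was not always enough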;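 further: 100% uses oxytocin at 75 nM as the full agonist control; some results filed as inactive read as strong as hits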
Target sequence (P30559 whole entry, looked up): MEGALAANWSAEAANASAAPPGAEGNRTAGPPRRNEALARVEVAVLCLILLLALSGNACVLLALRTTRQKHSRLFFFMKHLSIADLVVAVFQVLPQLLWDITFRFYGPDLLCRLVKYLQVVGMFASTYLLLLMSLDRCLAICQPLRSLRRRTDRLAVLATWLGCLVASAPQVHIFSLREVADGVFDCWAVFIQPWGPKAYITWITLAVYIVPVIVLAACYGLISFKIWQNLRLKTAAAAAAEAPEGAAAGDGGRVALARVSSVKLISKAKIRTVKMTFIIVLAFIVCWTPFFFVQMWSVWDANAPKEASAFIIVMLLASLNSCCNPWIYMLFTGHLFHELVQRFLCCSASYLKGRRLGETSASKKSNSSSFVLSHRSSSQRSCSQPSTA
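Assay system: CHO-OTR cells, human receptor / Also added: oxytocin at about EC15, sub-maximal agonist stimulus / Dosing: single dose, 3.0 µM nominal final compound concentration / Incubation: 6 min pre-incubation, 100 s read / Technique: Fluo-8 calcium dye fluorescence / Read-out: % activation vs EC15 and EC100 oxytocin / Benchmarks: EC15 oxytocin low, 75 nM oxytocin high / Replicates: singlicate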
TAAR1 antagonist: human TAAR1 antagonism; Q96RJ0; CHO RD-HGA16 TAAR1, Fluo-8 calcium fluorescence, antagonist; inhibition, % at 3 µM; hit rate 1.5% among 360,000;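 active means inhibition above a per-plate cutoff, the mean inhibition of test compounds on that plate plus 3 SD, cut at about 49% in these data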;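 further: 0% = DMSO plus EC80 beta-PEA response and 100% = DMSO alone without agonist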
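Material: RD-HGA16 CHO cells with stable hTAAR1 and Gα16; Dosing: single nominal final test compound concentration of 3 µM; Schedule: seeding 17-24 h prior, 75-min 37 °C, 30-min RT dye loading; Detection: kinetic Fluo-8 calcium fluorescence measurement; Measure: % inhibition from peak post-agonist over basal fluorescence ratio; Benchmarks: vehicle and agonist controls.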
Numbers without * were called inactive; · = not tested or not shown; & = joins results of further samples. Some of the compounds tested; the hit share may differ from the screen's.

canonical_smiles	CHO parental Ca	OXTR potentiate	TAAR1 antagonist
O=C(N[C@H](CO)[C@H](O)c1ccc([N+](=O)[O-])cc1)C(Cl)Cl	-8	-5	-15
Cc1nc2n(c(=O)c1CCN1CCC(c3noc4cc(F)ccc34)CC1)CCCC2	-8	2	-13
OCCN1CCN(CCCN2c3ccccc3Sc3ccc(C(F)(F)F)cc32)CC1	-13	-4	10
COCCCC/C(=N\OCCN)c1ccc(C(F)(F)F)cc1	-8&-10&-10&-3	2&-5&-22&-13	-21&-12&19&-5
Cc1ccc(O)c([C@H](CCN(C(C)C)C(C)C)c2ccccc2)c1	-14&-19	-10&-6	-10&-8
C[C@H]1O[C@H]1P(=O)(O)O	-2	-6	0
Nc1c(Br)cc(Br)cc1CNC1CCC(O)CC1 (stereo unspecified)	-7&-15	-17&-4	-2&-14
O=c1[nH]c(=O)n(C2C[C@H](O)[C@@H](CO)O2)cc1C(F)(F)F (stereo partly specified)	-2	-9	-24
C=CCOc1ccccc1OCC(O)CNC(C)C (stereo unspecified)	-9	-3	-34
CCCN(CCC)S(=O)(=O)c1ccc(C(=O)O)cc1	-3	-3	-12
CC(C)NC[C@H](O)COc1cccc2[nH]ccc12	-6	-2	-13
CCC1(c2ccccc2)C(=O)NCNC1=O	-12	1	-6
CC(=O)CC(c1ccccc1)c1c(O)c2ccccc2oc1=O (stereo unspecified)	-5&1&-8	-1&1&6	-21&13&-6
NCCCC(N)(C(=O)O)C(F)F (stereo unspecified)	2	-7	-5
CCCNCC(O)COc1ccccc1C(=O)CCc1ccccc1 (stereo unspecified)	-4	-4	-4
O=C(NCC1CCCCN1)c1cc(OCC(F)(F)F)ccc1OCC(F)(F)F (stereo unspecified)	-11	-7	-5
C#C[C@]1(O)CC[C@H]2[C@@H]3CCC4=C(CCC(=O)C4)[C@H]3CC[C@@]21C	-13	-12	45
CCCSc1ccc2nc(NC(=O)OC)[nH]c2c1	-5	-3	11
Cc1cn[nH]c1	-6	-2	-16
CC(=O)Oc1cc(C(C)C)c(OCCN(C)C)cc1C	2	-3	0
CNNCc1ccc(C(=O)NC(C)C)cc1	-6	-4	-4
Nc1nc2c(ncn2COC(CO)CO)c(=O)[nH]1	0	-16	-7
CC(C)[N+]1(C)[C@@H]2CC[C@H]1CC(OC(=O)C(CO)c1ccccc1)C2 (stereo partly specified)	5&-3&-5	-6&-7&-4	-14&-21
CC(=O)NC[C@H]1CN(c2ccc(N3CCOCC3)c(F)c2)C(=O)O1	-5	-2	·
CC(C)n1c(/C=C/[C@@H](O)C[C@@H](O)CC(=O)O)c(-c2ccc(F)cc2)c2ccccc21	-9	-1	-1
C(=C\c1ccccc1)/CN1CCN(C(c2ccccc2)c2ccccc2)CC1	-19	-5	-40
CCn1cc(C(=O)O)c(=O)c2cc(F)c(N3CCN(C)CC3)cc21	-6	-2	9
CC[C@H]1OC(=O)[C@H](C)[C@@H](O[C@H]2C[C@@](C)(OC)[C@@H](O)[C@H](C)O2)[C@H](C)[C@@H](O[C@@H]2O[C@H](C)C[C@H](N(C)C)[C@H]2O)[C@](C)(O)C[C@@H](C)C(=O)[C@H](C)[C@@H](O)[C@]1(C)O	-12	-6	-9
CCCc1nn(C)c2c(=O)[nH]c(-c3cc(S(=O)(=O)N4CCN(C)CC4)ccc3OCC)nc12	-17	0	-16
Cc1cccc(C)c1NC(=O)C(C)N (stereo unspecified)	-13	-18	·

Entries of single compounds, quoted from the list:
Entry for `CCCN(CCC)S(=O)(=O)c1ccc(C(=O)O)cc1` : CHO parental Ca = -3; OXTR potentiate = -3; TAAR1 antagonist = -12
Entry for `COCCCC/C(=N\OCCN)c1ccc(C(F)(F)F)cc1` : CHO parental Ca = -8&-10&-10&-3; OXTR potentiate = 2&-5&-22&-13; TAAR1 antagonist = -21&-12&19&-5
Entry for `O=C(N[C@H](CO)[C@H](O)c1ccc([N+](=O)[O-])cc1)C(Cl)Cl` : CHO parental Ca = -8; OXTR potentiate = -5; TAAR1 antagonist = -15

Next part
canonical_smiles	CHO parental Ca	OXTR potentiate	TAAR1 antagonist
CC(C)(Oc1ccc(C2CC2(Cl)Cl)cc1)C(=O)O (stereo unspecified)	0	-3	-7
COc1ccccc1OC[C@H](O)CO	-4	6	-13
CN(C)C(=O)C(CCN1CCC(O)(c2ccc(Cl)cc2)CC1)(c1ccccc1)c1ccccc1	-7	-6	9
Cc1ccccc1C(OCCN(C)C)c1ccccc1 (stereo unspecified)	-9&-11	-3&-5	1&-4
Cn1nnnc1SCC1=C(C(=O)O)N2C(=O)[C@@H](NC(=O)[C@H](O)c3ccccc3)[C@H]2SC1	-8	-6	·
COc1ccc2cc(C(C)C(=O)O)ccc2c1 (stereo unspecified)	-10	-11	3
CCCCC[C@H](O)/C=C/[C@@H]1[C@@H](C/C=C\CCCC(=O)O)[C@@H](O)C[C@H]1O	2	0	-6
COCCOC(=O)C1=C(C)NC(C)=C(C(=O)OC(C)C)C1c1cccc([N+](=O)[O-])c1 (stereo unspecified)	-17	3	5
CN(C)CCN(Cc1cccs1)c1ccccn1	1	-1	-5
Cc1c(O)c(=O)ccn1C	-1	-1	·
C#C[C@]1(O)CCC2C3CCC4=CC(=O)CC[C@@H]4C3CC[C@@]21C (stereo partly specified)	2	-6	-5
Nc1[nH]c(=O)ncc1F	5	-5	4
O=C(c1ccc(OCCN2CCCCC2)cc1)c1c(-c2ccc(O)cc2)sc2cc(O)ccc12	-10&6	-15&-11	3&8
Cc1cnc(C(=O)NCCc2ccc(S(=O)(=O)NC(=O)NC3CCCCC3)cc2)cn1	-6	0	-4
Nc1ccn([C@H]2CS[C@@H](CO)O2)c(=O)n1	-7	-2	2
COC(=O)CCc1ccc(OCC(O)CNC(C)C)cc1 (stereo unspecified)	-13	-10	-9
CC(=O)[C@H]1CC[C@H]2[C@@H]3CCC4=CC(=O)CC[C@]4(C)[C@H]3CC[C@]12C	-12&-21	-7&-8	6&8
CN1C2CCC1CC(OC(c1ccccc1)c1ccccc1)C2 (stereo unspecified)	-6	5	-26

Among those listed so far, these contain a carbonyl joined to an NH by a bond outside any ring.
canonical_smiles	CHO parental Ca	OXTR potentiate	TAAR1 antagonist
O=C(N[C@H](CO)[C@H](O)c1ccc([N+](=O)[O-])cc1)C(Cl)Cl	-8	-5	-15
O=C(NCC1CCCCN1)c1cc(OCC(F)(F)F)ccc1OCC(F)(F)F (stereo unspecified)	-11	-7	-5
CCCSc1ccc2nc(NC(=O)OC)[nH]c2c1	-5	-3	11
CNNCc1ccc(C(=O)NC(C)C)cc1	-6	-4	-4
CC(=O)NC[C@H]1CN(c2ccc(N3CCOCC3)c(F)c2)C(=O)O1	-5	-2	·
Cc1cccc(C)c1NC(=O)C(C)N (stereo unspecified)	-13	-18	·
Cn1nnnc1SCC1=C(C(=O)O)N2C(=O)[C@@H](NC(=O)[C@H](O)c3ccccc3)[C@H]2SC1	-8	-6	·
Cc1cnc(C(=O)NCCc2ccc(S(=O)(=O)NC(=O)NC3CCCCC3)cc2)cn1	-6	0	-4
